Screening data (PubChem BioAssay)
gsp antag: antagonists of gsp mutant (McCune-Albright syndrome) | Potency, µM (highest dose often 76.9 µM), inactives show at the top dose activity change, negative = inhibition, hits mostly inhibitors | gsp-mutant cells, cAMP HTRF, 30 min; control for the full effect not named in the record | 340,000 tested, 0.4% active; active = falling curve of any shape with a large fitted effect; inconclusive = falling curve, mostly with a smaller effect; inactive = flat or rising curve; cell line not stated here;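 note: intracellular cAMP measured with PDE inhibitor Ro 20-1724 present during compound exposure; potency is the fitted concentration of half-maximal effect; % is set by controls: 0 for no effect and ±100 for the full control effect; nearly all actives have a fitted effect of over 65% in size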
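HTRF cAMP measurement after 30 min RT detection following 30 min, 37C compound treatment alongside […] (added as 300 uM solution) in G418-selected cells seeded at 2000/well and grown 16–24 h.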
D2 agonist: agonists of human D2 dopamine receptor (beta-arrestin); 360,000 tested, 0.084% active; DiscoveRx PathHunter D2 beta-arrestin, luminescence, 90 min; 100% = 57 uM dopamine signal; P14416; AID 624465; activation, % (concentration not given with the values); in the data active = activation above about 40%; inconclusive = about 15% to 40%; inactive = below about 15%; note: compound concentration not given in the record; the text of the record calls up to 30% inactive
Target sequence (P14416 whole entry, looked up): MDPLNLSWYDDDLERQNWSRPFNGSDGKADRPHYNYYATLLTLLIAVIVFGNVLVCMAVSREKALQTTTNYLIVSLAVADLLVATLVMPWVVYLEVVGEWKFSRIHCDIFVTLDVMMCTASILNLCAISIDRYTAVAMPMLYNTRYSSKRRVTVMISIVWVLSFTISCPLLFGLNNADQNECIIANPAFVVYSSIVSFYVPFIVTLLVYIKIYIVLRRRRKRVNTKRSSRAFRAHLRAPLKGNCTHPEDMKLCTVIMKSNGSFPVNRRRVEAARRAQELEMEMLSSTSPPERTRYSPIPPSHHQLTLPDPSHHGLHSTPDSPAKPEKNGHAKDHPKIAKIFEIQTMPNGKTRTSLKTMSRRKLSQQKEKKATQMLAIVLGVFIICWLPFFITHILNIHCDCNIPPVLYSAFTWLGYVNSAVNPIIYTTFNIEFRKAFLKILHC
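DiscoveRx PathHunter D2 beta-arrestin cells (2,100/well) attached overnight, then compound-stimulated 90 min at 37 C in HBSS/10 mM HEPES/0.1% Tween-20 buffer; beta-galactosidase complementation read by luminescence after 1 h at ambient temperature. Dopamine 57 uM final (EC100) as control.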
PINK1 expr mod: changes PINK1 expression. PINK1 immunofluorescence, high-content cytometry, 24 h. Potency, µM (highest dose often 76.6 µM), for the others: at the top dose activation (PINK1 increase), hits mostly activators. 410,000 tested, 0.2% active. AID 624263; active = well fitted activation curve with a large enough effect; inconclusive = small, poorly fitted or top-dose-only effect; inactive = flat fitted curve, though single readings scatter; cell line not stated here;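 note: potency is the fitted concentration of half-maximal effect; % of control where 0% means no effect; nearly all actives have a fitted effect of over 65% in size; a mitochondrial uncoupler was the plate control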
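Stable cell line treated 24 h with compounds at 5 concentrations (CCCP controls), then fixed and immunostained for PINK1 plus nuclear and cell stains; PINK1 immunofluorescence quantified by laser-scanning microplate cytometry.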
gsp agonist: agonists of gsp mutant (McCune-Albright syndrome) | gsp mutant cells, cAMP HTRF, 30 min; control for the full effect not named in the record | Potency, µM (top dose mostly 76.9 µM), for the others: at the top dose activation (cAMP increase), actives largely listed as activators | 340,000 tested, 0.13% active; active = well fitted activation curve with a large enough effect; inconclusive = small, poorly fitted or top-dose-only effect, or another doubt; inactive = no such curve, though single readings can be large or run the other way; cell line not stated here;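 note: phosphodiesterase inhibitor Ro 20-1724 added with compounds to block cAMP breakdown; potency is the fitted concentration of half-maximal effect; nearly all actives have a fitted effect of over 60% in size; about a fifth of the inactives were tested at one dose only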
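Cells stably selected in G418 were plated at 2000/well, grown 16-24 hr, then given compounds in DMSO with the PDE inhibitor […] (300 uM solution added) for 30 min at 37C; cAMP was read by HTRF.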
ClpP mod: qHTS Assay for Activators of ClpP. purified B. subtilis ClpP, FRET peptide cleavage, 20 min. Potency, µM (titrated, usually from 57.5 µM), inactives show top-dose activity change, negative = active. ATP-dependent Clp protease proteolytic subunit (Bacillus subtilis (strain 168)), P80244. AID 651965, 2013. 340,000 tested, 1.9% active; active = well fitted falling curve with a large enough effect; inconclusive = small, poorly fitted or top-dose-only effect; inactive = no such curve, though single readings can be large or run the other way; note: potency is the fitted concentration of half-maximal effect; the source files actives as falling curves though it sought activators and does not explain the sign; nearly all actives have a fitted effect of over 65% in size; many hits overshoot -100%
Target sequence (P80244 whole entry, looked up): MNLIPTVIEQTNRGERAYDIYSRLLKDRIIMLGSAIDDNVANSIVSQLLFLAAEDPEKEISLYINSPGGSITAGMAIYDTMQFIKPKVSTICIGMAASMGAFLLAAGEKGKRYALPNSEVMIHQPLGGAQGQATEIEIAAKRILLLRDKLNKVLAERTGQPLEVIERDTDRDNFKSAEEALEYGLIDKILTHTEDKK
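FRET quenching reversal measured ClpP activation: 10 microg/mL B. subtilis ClpP at pH 8 with the FRET-FV decapeptide, read at 430 nm after 320 nm excitation. The 20-min minus 0-min signal was scaled between DMSO/no-enzyme wells and ADEP (5.8 microM final).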
Sfp inh: inhibitors of Bacillus subtilis Sfp phosphopantetheinyl transferase | Biochemical Sfp PPTase activity, qHTS | 310,000 tested, 3.5% active | AID 1490 | Q9F4F7 | Potency, µM, for the others: max response, negative = inhibition, actives largely listed as inhibitors; active = well fitted inhibition curve with a large enough effect; inconclusive = small, poorly fitted or top-dose-only effect, or another doubt; inactive = no such curve, though single readings can be large or run the other way;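 note: the enzyme is Sfp with the accession as filed and its product quenches rhodamine fluorescence; potency is the fitted concentration of half-maximal effect; 0% = enzyme reaction without inhibitor and -100% = no enzyme wells; top concentration of the series not given in the record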
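Fluorescence-quenching assay with 15 nM Sfp, 5 uM rhodamine-CoA and 12.5 uM BHQ-2-labelled ybbR peptide in pH 7.6 Hepes/MgCl2 buffer. Enzyme was pre-incubated with compound for 15 min at room temperature. Rate was taken from the 30-min fluorescence change (525/598 nm).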
Menin-MLL FL inh: displaces fluorescein MLL peptide from human menin; Fluorescence polarization, fluorescein-MLL peptide displacement from menin; FP activity change, % at 61.4 µM; 290,000 tested, under 10 active; AID 1766; inconclusive = falling polarisation curve, or a change in total fluorescence; inactive = total fluorescence flat and polarisation flat or rising; no compound was filed as active; the % refers to the polarisation; negative = inhibition;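 note: % of control where 0% means no effect; inhibitors lower the polarisation; unlabelled MLL peptide was the positive control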
* marks the source's active call; other numbers are inactive results; ? = inconclusive; . = not tested or not shown; [ ] = dose if it differs, or a comment. An unsorted share of the library. About 5.1% of those tested had a hit in this group.

SMILES	gsp antag	D2 agonist	PINK1 expr mod	gsp agonist	ClpP mod	Sfp inh	Menin-MLL FL inh
CCCCn1c(N)c(N(CCOC)C(=O)c2cc(-c3ccco3)nc3ccccc23)c(=O)[nH]c1=O	6%	2.5	5.1%	-2%	?	.	.
COc1ccc(-c2cnnc(N/N=C/c3ccc(O)cc3)n2)cc1	0%	-0.8	1.4%	8%[15.4 µM]	.	5%	-4.4
c1ccc(COc2cccc(CNCc3ccccn3)c2)cc1	16%	-0.4	-0.3%	-1%	-0.2%	?	2.1
CC(=O)Nc1nc(NCc2ccccc2Cl)n(-c2ccccc2)n1	-4%	2.2	-2.4%	-3%	-0.1%	-3%	0.8
COC(=O)c1ccc(NC(=O)C2CCCN2S(=O)(=O)c2ccc(OC)cc2)cc1 (configuration not stated)	-4%	-2.3	0.3%	-20%	-19%	6%	2.2
Cc1ccc(CN2CCN(/N=C/c3ccc(C)s3)CC2)cc1	-3%	-1.3	?	3%[15.4 µM]	1.8%	-12%	-0.8
Cc1ccccc1-c1ccccc1N	1%	-1.4	2.6%	-15%	.	-4%	5.5
COc1cc(CNCCc2ccccc2)cc(Cl)c1OCc1ccccc1	10%	1.8	-2.8%	-3%[15.4 µM]	.	32µM*	-0.8
O=C(NCc1n[nH]c(=S)n1-c1cccc(Cl)c1)c1ccc(S(=O)(=O)N2CCCCC2)cc1	1%	-9.3	1.5%	?	.	-12%	0.2
COc1cc(C2c3c(oc4ccccc4c3=O)C(=O)N2c2ccc(C)cn2)ccc1O (configuration not stated)	-2%	0.6	-0.1%	-30%	-1.1%	2%	-0.9
CCc1cc2ccccc2nc1SCC(=O)N1CCN(C(=O)c2ccco2)CC1	-31%	-0.2	1.9%	-5%	0.5%	-7%	0.0
CN(Cc1ccccc1)C(=O)COC(=O)C1CCN(S(=O)(=O)c2cccs2)CC1	0%	5.9	-0.2%	-3%	.	0%	7.3
C[C@@H](NC(=O)c1nc[nH]c1C(=O)N[C@@H](Cc1ccccc1)C(=O)OCc1ccccc1)c1ccccc1	-8%	1.4	3.4%	16%	-2.2%	17%	-6.1
CCOC(=O)c1cc2c(=O)n3cccc(C)c3nc2n(CCOC)c1=NC(C)=O	0%	-0.8	0.4%	11%[15.4 µM]	.	17%	3.9
CC(C)CCN(CCC(C)C)C(CO)(CO)CO	16%	-6.9	-0.8%	-7%[15.4 µM]	.	?	-2.2
COC(=O)c1ccc(CNC(=O)COC(=O)C23CC4CC(CC(C4)C2)C3)cc1	4%	-2.0	0.2%	12%	1.5%	3%	-0.2
COCC(=O)Nc1ccc(S(=O)(=O)Nc2nccs2)cc1	8%	-2.6	0.8%	15%[15.4 µM]	-3.0%	18%	0.6
CC1CCN(Cc2cc(=O)oc3ccc4ccccc4c23)CC1	12%	-1.5	3.1%	15%[15.4 µM]	.	-11%	5.6
O=C(O)/C=C/c1ccc(S(=O)(=O)NCc2cccnc2)cc1	17%	-4.4	1.1%	-3%	-0.4%	15%	1.3
O=C(O)CC(c1ccccc1)N1C(=O)c2cccc([N+](=O)[O-])c2C1=O (configuration not stated)	7%	0.8	-0.4%	-20%	-0.8%	20%	-6.0
O=C(NCCc1ccc(Cl)cc1)C1CC(=O)N(C2CCCC2)C1 (configuration not stated)	17%	-1.9	-0.6%	?	1.5%	8%	-1.2
O=c1[nH]nc(Sc2ncnc3sccc23)n1CCc1ccccc1	3%	-1.9	-2.2%	?	1.1%	8%	3.3
COc1ccc2nc(NC(=O)CSc3n[nH]c(N)n3)sc2c1	-29%	0.5	-0.5%	-6%[15.4 µM]	.	.	.
CC(C)C(=O)Nc1nnc(SCC(=O)NCC2CCCO2)s1 (configuration not stated)	0%	4.2	-0.7%	6%[15.4 µM]	.	19%	3.9
CCN(CC(=O)NCc1cccs1)C(=O)CCC(=O)c1ccc(F)cc1	9%	0.8	4.3%	-55%[inhibitor]	-0.6%	.	.
Cc1ccccc1N1CCN(S(=O)(=O)c2nnc(NC(=O)CC(C)C)s2)CC1	6%	-8.9	3.5%	?	0.4%	8%	2.1
Cc1ccc(NC(=O)O/N=C/c2c(C)nn(C(C)(C)C)c2C)cc1Cl	-23%	1.8	0.4%	1%	.	-8%	-0.8
N#CC(C#N)=C(Nc1ccc(F)cc1)SCc1cccc(F)c1	32µM*	2.6	?	1%	-2.7%	14%	1.5
CC(C)Cn1nc(NC(=O)c2ccco2)c2cc3ccccc3nc21	-10%	-0.4	0.8%	6%[15.4 µM]	.	-2%	2.6
O=C(Nc1ccc2c(c1)OCO2)c1cnc(Cl)c(Cl)c1	-17%	-5.7	-1.2%	15%	-14%	.	.
CN1CCc2nc(SCCOc3ccccc3)c(C#N)cc2C1	-19%	-2.7	.	?	5.7%	-9%	1.6
CCCc1cc(=O)oc2cc(OCC(=O)Nc3cc(C)on3)ccc12	0%	-2.3	0.4%	?	?	0%	1.5
CS(=O)(=O)NCC(c1cccnc1)N1CCN(c2ccccc2F)CC1 (configuration not stated)	7%	-1.7	0.8%	15%	0.8%	27%	3.9
Cc1c(Cl)cccc1NC(=O)CC(Cc1ccccc1)C(=O)O (configuration not stated)	-17%	-3.2	0.3%	-5%[15.4 µM]	0.8%	21%	-9.3
CC(=O)c1cccc(NC(=O)COc2cc3oc(=O)c(CC(C)O)c(C)c3cc2Cl)c1 (configuration not stated)	32µM*	2.4	0.4%	6%[15.4 µM]	.	?	-0.3
Cc1cccnc1NC(=O)C(C)N1C(=O)c2ccccc2C1=O (configuration not stated)	9%	3.4	1.1%	-5%[15.4 µM]	-0.2%	10%	-0.1
COc1ccc(NC(=O)CSCC(=O)N2c3ccccc3CCc3ccccc32)cc1	-5%	-2.3	0.7%	-43%[inhibitor]	-3.1%	6%	2.7
Cc1nc2ncnn2c(C)c1Cc1cccc(F)c1	17%	-2.7	0.7%	-4%[15.4 µM]	?	12%	-0.3
COC(=O)CNC(=O)COC(=O)c1cc(F)c(F)cc1Cl	5%	-1.1	-1.2%	10%	0.6%	6%	-2.9
CCOC(=O)CSc1nnc(-c2cccc(Br)c2)o1	-14%	-3.1	-1.3%	-33%[inhibitor]	0.6%	-18%	0.1
O=C(Cc1cccs1)NCc1ccccc1	10%	1.4	6.2%[38.3 µM]	-8%	-1.2%	21%	2.7
CCOc1ccccc1NC(=O)NCc1ccc(F)cc1	7%	-1.2	0.1%	-37%[inhibitor]	.	9%	1.9
Cc1sc2nc3c(C(=O)N4CCCC4)cc(C(=O)c4ccccc4O)cn3c(=O)c2c1C	-101%	-3.3	0.7%	33%[15.4 µM]	0.9%	22µM*	?
Cc1ccc(CN2CCNC(=O)C2CC(=O)N(C)CCc2cnn(C)c2)cc1 (configuration not stated)	3%	0.3	-1.1%	-3%	-1.2%	11%	.
CC(C)NC(=O)c1cnc(Sc2ncc(C(F)(F)F)cc2Cl)n1C	-7%	1.5	1.2%	-8%	-2.1%	-2%	0.4
CCC(=O)Nc1ccc2nc(C)n(CC(=O)Nc3ccccc3)c(=O)c2c1	8%	-0.4	.	5%	-23%	0%	5.3
O=C(Cn1cccc1C(=O)c1ccccc1)NCc1ccccc1	3%	-3.2	3.7%	-24%	-1.5%	15%	3.0
CC(C)CC(NC(=O)CNC(=O)C1O[C@@H]2OC(C)(C)O[C@@H]2[C@H]2OC(C)(C)O[C@@H]12)C(=O)O (some centres not stated)	10%	-3.7	2.2%	30%	0.7%	-13%	3.3
COc1ccc(C(=O)COC(=O)c2ccc3c(c2)NC(=O)CS3)c(OC)c1	-3%	-1.1	6.5%	-28%[15.4 µM]	.	.	.
O=C(CN1C(=O)c2ccccc2S1(=O)=O)NC1CCCC1	2%	-0.8	-3.3%[38.3 µM]	3%	3.8%	-3%	-0.5
Next part:
SMILES	gsp antag	D2 agonist	PINK1 expr mod	gsp agonist	ClpP mod	Sfp inh	Menin-MLL FL inh
Cc1ccc(C(O)c2ncc(-c3ccc4ccccc4c3)[nH]2)cc1F (configuration not stated)	.	-1.0	?	.	4.7%	.	.
O=c1cc(NC2CCCCC2)c2ccccc2o1	-4%	-3.9	2.9%[38.3 µM]	-14%	1.4%	-6%	3.3
O=C(c1ccncc1)N1CCN(S(=O)(=O)c2cc(C(F)(F)F)cc(C(F)(F)F)c2)CC1	2%	-2.7	?	-1%	1.0%	.	.
O=C(Nc1ccccc1F)C1CCCN1S(=O)(=O)c1cccc2nsnc12 (configuration not stated)	-2%	5.2	-0.8%	-66%[inhibitor]	-1.3%	13%	.
Cc1ccc(C2NC(=O)c3ccccc3O2)cc1 (configuration not stated)	12%	-3.6	-0.3%	-63%[inhibitor]	4.0%	8%	-3.4
O=C(c1ccncc1)N1CCC2(CC1)CN(C(c1ccccc1)c1ccccc1)C2	.	.	0.2%	.	.	6%	0.2
Cc1ccc(C(=O)Nc2nc(C(N)Cc3ccc(C(F)(F)F)cc3)cs2)cc1 (configuration not stated)	.	7.6	1.9%	.	-4.5%	.	.
O=C(Nc1ccccc1)C1CC2CCC1C2 (configuration not stated)	0%	5.9	0.7%	4%[15.4 µM]	-0.2%	17%	2.8
Cc1ccc(NC(=O)CS(=O)CC(=O)N(CC(=O)NC2CCCC2)c2cc(C)ccc2C)cc1 (configuration not stated)	2%	-1.6	-1.6%[38.3 µM]	-52%[inhibitor]	-2.1%	20%	2.7
COc1cccc(-c2nc(C(N)=O)c3[nH]c(=O)n(-c4ccccc4)c3n2)c1OC	-8%	2.8	1.0%	-41%[inhibitor]	-17%	19%	-1.7
O=C1CCN(S(=O)(=O)c2ccccc2)CCN1CCOCc1ccc(F)cc1	4%	-2.5	-1.0%	22%	3.0%	3%	2.9
COc1cccc(C(=O)NC2CCCc3c2cnn3-c2cc(C)cc(C)c2)c1 (configuration not stated)	?	-1.7	-1.5%	-3%	-1.2%	1%	.
CC(C)(C)c1ccc(C(=O)CSc2ncn[nH]2)cc1	10%	-3.0	1.8%[38.3 µM]	?	-1.1%	-21%	6.8
